From PubChem
H5N1 CPE = MDCK cell protection from H5N1 avian flu; cytopathic effect, luminescence, 72 h; active compounds read high; no value below 0 was filed and about half of the inactive calls have no number; reference of the scale not given here; inhibition, % at 50 µM; actives 0.07% (n = 96,000); AID 740, 2007; in the data active means inhibition above about 25%
The depositor's hits bear a star; i = inactive.

#	mol	H5N1 CPE
1	COc1cc2c(C(=O)N3CCN(C)CC3)c(C)n(-c3ccccc3)c2cc1Br	i
2	C=CCN1C(=NC(=O)CC)SC2CS(=O)(=O)CC21 (configuration not stated)	i
3	Nc1nonc1-c1nc2ccccc2n1Cc1ccc(F)cc1	3.4
4	Cc1ccc(Oc2ccc(NC(=O)Cn3ccsc3=N)cc2)cc1	i
5	O=C(Nc1ccc2nc(-c3ccccn3)[nH]c2c1)C1CCCCC1	i
6	COc1cc2c(cc1NC(=S)Nc1cccc(C)c1)oc1ccccc12	i
7	COc1ccccc1NC(=O)c1ccc(Br)o1	i
8	COc1cc(/C=N/N(C)c2ccccc2)ccc1O	i
9	Cc1ccc(Cl)cc1Nc1nc(-c2sc(NC(=O)c3ccco3)nc2C)cs1	4.2
10	COc1ccccc1NC(=O)c1cn(C)c(=O)c2cc(OC)c(OC)cc12	i
11	CC(C)NC(=O)c1cc(=O)n(C)c(=O)n1C	0.9
12	COc1ccc(OC)c(NC(=O)C2CCN(Cc3cnn(-c4ccccc4)c3-n3cccc3)CC2)c1	i
13	COc1ccc(C(=O)Nc2cccc(-c3cnc4ccccc4n3)c2)cc1	0.6
14	CCNC(=O)c1cc(Br)ccc1Cl	i
15	O=C(COc1ccc(S(=O)(=O)N2CCCCC2)cc1)NC1CCCCC1	2.5
16	COc1cccc2c(=O)n(CC(=O)N3CCCCCC3)ccc12	1.2
17	COc1cc(Br)cc(CN2CCN(C/C=C/c3ccccc3)CC2)c1O	i
18	Cc1ccccc1CN1CCN(CC(=O)NCc2ccccn2)C1=O	1.2
19	COCCNC(=O)C(c1cccs1)N(C(=O)Cn1nnc2ccccc21)c1ccc2c(c1)OCO2 (configuration not stated)	i
20	N#CCCN(Cc1cccnc1)C(=O)Nc1cccc(Cl)c1	1.4
21	C/C(=N\NC(=S)Nc1ccc(F)cc1)C1CC1	1.2
22	COC1(OC)C(=N/O)/C(=N\O)CCC1O (configuration not stated)	0.6
23	CC(C)(C)NC(=O)CCN1CCOCC1	0.3
24	CC1Cc2nc(SCC(=O)N3CCN(c4ccccc4)CC3)n(C)c(=O)c2S1 (configuration not stated)	6.9
25	O=C(NCCc1ccccc1)c1cccs1	2.8
26	COc1ccc(-c2cc(C(N)=O)nc(N3CCCCCC3)n2)cc1	0.5
27	CCN(CC)CCCNC(=O)Cc1c(C(=O)O)n(C)c2ccccc12	0.1
28	O=c1[nH]c(CN2CCc3ccccc32)nc2scc(-c3cccs3)c12	0.4
29	COc1cccc(-n2nnnc2SCC(=O)NC2CCCC2)c1	0.3
30	COc1cc(NC(=O)c2cc(C)on2)cc(OC)c1OC	0.2

Reformatted as labelled records: 3 of the compounds above
#6 COc1cc2c(cc1NC(=S)Nc1cccc(C)c1)oc1ccccc12
  H5N1 CPE = i
#7 COc1ccccc1NC(=O)c1ccc(Br)o1
  H5N1 CPE = i
#8 COc1cc(/C=N/N(C)c2ccccc2)ccc1O
  H5N1 CPE = i

Carrying on:
#	mol	H5N1 CPE
31	CC(C)(C)c1ccc(S(=O)(=O)NCc2ccc(C(=O)N3CCOCC3)cc2)cc1	i
32	C=COC(=O)CSc1snc(SCC(=O)OC)c1C#N	i
33	CC1(C)NC(=O)N(CCOc2ccc3c(c2)CCC3)C1=O	0.7
34	O=c1c2c3c(sc2nc2n1CCCC2)CCC3	0.8
35	CCOc1ccc(N(CC(=O)NC2CCCC2)S(=O)(=O)c2c(C)[nH]c(=O)[nH]c2=O)cc1	1.5
36	N#Cc1cccc(NC(=O)c2ccccc2C(=O)O)c1	i
37	COc1ccc(Cn2c(C3CC3)nc3ccc(NC(=O)c4ccco4)cc3c2=O)cc1	0.1
38	O=C(Oc1ccc2ccccc2c1Cl)N1CCCC1	0.4
39	CCn1nc(C(=O)OCC(=O)NCCN2C(=O)CSC2=O)c2ccccc2c1=O	0.2
40	CCSc1nnc2c(n1)[nH]c1c(C)cccc12	i
41	CC(=O)C1=C(C)NC(=O)NC1c1cccs1 (configuration not stated)	i
42	COc1ccc2nc(NC(=O)CCNS(=O)(=O)c3ccc4c(c3)oc(=O)n4C)sc2c1	0.4
43	CCNC(=O)CN(Cc1ccccc1)S(=O)(=O)c1ccccc1	i
44	NC(=O)c1ccc(-n2nnnc2Oc2ccccc2C(=O)N2CCOCC2)cc1	0.5
45	Cc1ccc(CSc2nnc(-c3ccccn3)n2C)cc1	0.1
46	O=C(NC1=NCCS1)C1COc2ccccc2O1 (configuration not stated)	0.4
47	COc1cccc(C2C(C(=O)c3sc(C)nc3C)=C(O)C(=O)N2CCN2CCOCC2)c1OC (configuration not stated)	i
48	O=C(OCc1ccccc1)c1ccc(Br)o1	i
49	O=c1oc2ccccc2c(O)c1C=NCc1ccccn1	0.2
50	CCOc1ccc(NC(=O)COC(=O)Cc2ccc(S(=O)(=O)N3CCOCC3)s2)cc1	0.1
51	CCC(=O)/C=C1/Sc2ccc(OC)cc2N1CC	0.4
52	NC(=O)c1nc(C2CCCCC2)nc2c1[nH]c(=O)n2-c1ccc(F)cc1	i
53	COC(=O)c1cc(NC(=O)Cc2coc3cc(OC)ccc23)cc(C(=O)OC)c1	i
54	O=C(CCCCCn1c(SCC(=O)c2ccccc2)nc2ccccc2c1=O)NCc1ccco1	i
55	CC1CCCCN1CCCn1c(=S)[nH]c2ccccc2c1=O (configuration not stated)	i
56	COC(=O)CN(c1cccc(OC)c1)S(C)(=O)=O	0.4
57	Cc1cnc(NC(=O)C2COc3ccccc3O2)s1 (configuration not stated)	0.1
58	O=C(c1cccs1)N1CCN(CCc2ccccc2)CC1	i
59	Cc1cc(=O)n2[nH]c(COc3ccccc3)nc2n1	i
60	COCCNC(=O)CNS(=O)(=O)c1ccc2nc(C)sc2c1	i

Quoted at random: 2 compounds from above
#	mol	H5N1 CPE
30	COc1cc(NC(=O)c2cc(C)on2)cc(OC)c1OC	0.2
2	C=CCN1C(=NC(=O)CC)SC2CS(=O)(=O)CC21 (configuration not stated)	i

(cont.)
cpd	SMILES	H5N1 CPE
61	CCc1c(C)nc2ncnn2c1NCCc1ccc(OC)cc1	1.9
62	COc1ccc(/C=C2\C(=O)N(Cc3ccc(F)cc3)CC(=O)N2Cc2ccccc2)cc1	1.3
63	COC(=O)Nc1ccc(=O)n(Cc2c(Cl)cccc2Cl)c1	i
64	COc1ccccc1N(CC(O)CN1C(=O)NC(C)(C)C1=O)S(=O)(=O)c1ccc(C)cc1 (configuration not stated)	0.7
65	CCC(CC)C(=O)Nc1ccccc1-n1cccc1	i
66	O=C(Cn1cc2c(n1)CCCCC2)NCc1ccccn1	0.2
67	CCOC(=O)c1cccc(NC(=O)/C=C/c2cccc([N+](=O)[O-])c2)c1	2.0
68	CNc1nc(NCCOC23CC4CC(CC(C4)C2)C3)nc(OCC(F)(F)F)n1	1.8
69	Cc1ccc(C(=O)c2c(C)oc3c2C(=O)C(=O)c2ccccc2-3)cc1	0.2
70	O=C1CCN(S(=O)(=O)c2ccccc2)C2CCCCC12 (configuration not stated)	i
71	O=C(O)CC(=O)NC12CC3CC(CC(C3)C1)C2	0.2
72	COc1ccc(OCc2ccc(C(=O)O)cc2)cc1	1.1
73	O=C(C1CCN(S(=O)(=O)c2cccc3cccnc23)CC1)N1CCCC1	0.3
74	CCOc1ccc(S(=O)(=O)NCCOC)cc1C	0.2
75	CCCCCn1c(=O)[nH]c2cc(C(=O)NCCN(CC)CC)ccc2c1=O	i
76	Cc1ccc(CNC(=O)C(C)OC(=O)c2ccco2)cc1 (configuration not stated)	i
77	Cc1ccc(S(=O)(=O)c2c(N)n(NC(=O)C3CC3)c3nc4ccccc4nc23)cc1	i
78	Cc1cc(OCC(=O)Nc2cc(-c3nn4c(C)nnc4s3)ccc2C)ccc1Cl	0.1
79	Cc1c(C(=O)OCC(=O)N(CCC#N)c2ccccc2)oc2c1ccc1ccccc12	0.4
80	CCOC(=O)/C=C1\SCC(=O)N1CC(=O)c1ccc[nH]1	0.4
81	CCOc1ccc(NC2=NCC(=O)N2CCc2ccccc2)cc1	i
82	CCCCn1c(-c2ccncc2)nc2c1c(=O)[nH]c(=O)n2CC(C)C	i
83	O=C1CCCN1CCCNc1ncnc2c1cnn2-c1ccc(Cl)cc1	0.3
84	O=C(Nc1ccc(N2CCOCC2)cc1N1CCOCC1)c1ccc([N+](=O)[O-])cc1	i
85	CCOC(=O)Cn1c(=N)n(Cc2ccccc2)c2ccccc21	0.1
86	COc1ccc(-c2noc(CCCC(=O)NCc3ccco3)n2)cc1OC	i
87	CCOc1ccc(-c2nnc3n2N=C(c2ccc(OC)cc2)CS3)cc1	0.7
88	Cc1onc(-c2c(F)cccc2Cl)c1C(=O)Nc1nc2c(s1)CCCC2	i
89	O=C(Nc1ccc(-c2cn3ccsc3n2)cc1)c1ccc(F)c(S(=O)(=O)N2CCOCC2)c1	i
90	Cc1ccc(C)c(-n2c(-c3csc(C)c3)n[nH]c2=S)c1	3.7

Of the compounds above, 6 have an aryl thioether with sulfur outside any ring:
cpd	SMILES	H5N1 CPE
24	CC1Cc2nc(SCC(=O)N3CCN(c4ccccc4)CC3)n(C)c(=O)c2S1 (configuration not stated)	6.9
29	COc1cccc(-n2nnnc2SCC(=O)NC2CCCC2)c1	0.3
32	C=COC(=O)CSc1snc(SCC(=O)OC)c1C#N	i
40	CCSc1nnc2c(n1)[nH]c1c(C)cccc12	i
45	Cc1ccc(CSc2nnc(-c3ccccn3)n2C)cc1	0.1
54	O=C(CCCCCn1c(SCC(=O)c2ccccc2)nc2ccccc2c1=O)NCc1ccco1	i

New compounds follow:
cpd	SMILES	H5N1 CPE
91	Cc1ccc(CN2CCN(/N=C/c3cc(Br)ccc3O)CC2)cc1	i
92	COc1ccc2cc3cc(C(=O)NC(C)C)oc3nc2c1	1.5
93	CCOc1ccc(CNC(=O)C2CC(=O)N(C3CCCC3)C2)cc1OC (configuration not stated)	0.0
94	O=C(Nc1ccc2c(c1)OC1(CCCC1)O2)C1CC1	0.5
95	CSc1ccccc1NC(=O)c1cc(C2CC2)on1	0.1
96	Cc1ccc(NC(=O)C(C)Sc2nnc(-c3cccnc3)n2-c2ccccc2)cc1 (configuration not stated)	i
97	CCC1=Nc2ccccc2-c2nnc(SC)nc2O1	12
98	Nc1c(C(=O)NCCc2ccccc2)nnn1Cc1ccccc1	i
99	O=C(Nc1cccnc1)C1CCN(S(=O)(=O)c2cccc3nonc23)CC1	0.5
100	CCOC(=O)N1CCC(NC(=O)c2cc3c(-c4cccc(OC)c4)nn(C)c3s2)CC1	0.3
101	O=C(CCC(=O)c1ccc(F)cc1)Nc1cc(Cl)cc(Cl)c1	0.3
102	COc1ccccc1NC(=O)c1sc2ncn(Cc3ccc(C)cc3)c(=O)c2c1C	i
103	Cc1cc(=O)oc(C)c1C(=O)NCc1ccccc1	i
104	COc1cc(=O)[nH]c(=O)n1C(=O)Cc1ccccc1	i
105	CC(C)(C)NS(=O)(=O)c1ccc(CCC(=O)NCc2ccco2)cc1	0.1
106	Cc1cc(Nc2nnnn2-c2ccccc2)n(-c2ccccc2)n1	0.7
107	Cc1nc2ccc(F)cc2cc1C(=O)NCC1CCCO1 (configuration not stated)	i
108	CNC(=S)N1CCN(c2ccc([N+](=O)[O-])cc2)CC1	0.4
109	CCC(=O)N(CC)C1=C(O)c2ccccc2C(=O)C1=O	1.1
110	CN(C)c1ccc(NC(=O)CN2C(=O)CN=C(c3ccccc3)c3cc(Cl)ccc32)cc1	1.0
111	O=C(Nc1ccc2c(c1)OCCO2)c1ccc(Br)c(S(=O)(=O)N2CCOCC2)c1	1.0
112	Cn1c(=O)c2c(nc(CN3CCN(C(=O)c4ccco4)CC3)n2Cc2ccccc2)n(C)c1=O	3.9
113	O=C1c2ccccc2C(O)(c2ncc[nH]2)N1C1CCCCC1 (configuration not stated)	0.9
114	c1ccc(CNc2ncnc3sc4c(c23)CCC4)nc1	1.7
115	COCCn1nnnc1C(c1cc2ccc(C)cc2[nH]c1=O)N(Cc1ccco1)Cc1cccs1 (configuration not stated)	i
116	CC1CCCCC12NC(=O)N(CC(=O)Nc1sc3c(c1C(N)=O)CCC3)C2=O (configuration not stated)	1.8
117	O=C(O)Cc1sc(-c2ccc(Cl)cc2)nc1-c1ccccc1	i
118	Cn1c(CO)nc2cc(N)ccc21	i
119	COc1ccc(C(=S)N2CCCC2)cc1OC	i
120	C/C(=N/NC(=O)c1cccs1)c1ccc(NC(=O)COc2ccc(Cl)cc2Cl)cc1	i

Later entries.
cpd	SMILES	H5N1 CPE
121	O=C(Nc1ccc(N2CCN(Cc3ccccc3Cl)CC2)cc1)c1cccnc1	0.2
122	NC(=O)C1(NC(=O)[C@@H]2CC3(CC(c4cccc(NC(=O)c5cc([N+](=O)[O-])cc([N+](=O)[O-])c5)c4)=NO3)CN2C(=O)c2ccccc2)CC1 (some centres not stated)	i
123	COc1ccc(Cc2nn3c(-c4ccccc4Br)nnc3s2)cc1	1.4
124	CCOC(=O)C1=C(C)NC(C)=C(C(=O)OCC)C1/C=C/c1ccccc1	i
125	CC(C)C(NS(=O)(=O)c1cccs1)C(=O)N1CCc2ccccc2C1 (configuration not stated)	0.6
126	O=C(NC1CCCCCC1)c1cccs1	2.6
127	CC(=O)CCc1ccc2oc(C(=O)O)c(C)c2c1	0.3
128	Cc1cc(NC(=O)C2CC(c3cccc(Br)c3)=NO2)no1 (configuration not stated)	0.9
129	CCCc1nc2oc3c(NCCOCCO)ncnc3c2c2c1COC(C)(C)C2	0.4
130	COC(=O)CSc1nc2ccccc2c(=O)n1C	0.2
131	O=C(COC(=O)c1cccc(S(=O)(=O)N2CCc3ccccc3C2)c1)NCc1ccco1	i
132	CC(C)(C)n1ncc2c(=O)n(Cc3ccc(Cl)cc3Cl)cnc21	2.1
133	Cn1c(N)c(C(=O)COC(=O)C2CCC(C(C)(C)C)CC2)c(=O)n(C)c1=O (configuration not stated)	1.8
134	CCN1CCN(CCCNC(=O)C2c3ccccc3C(=O)N(C)C2c2ccc(OC)cc2)CC1 (configuration not stated)	0.6
135	CC12CC(NC(=O)N1CCc1ccccc1)c1cc(Cl)ccc1O2 (configuration not stated)	0.3
136	Cc1sc2ncn(CCn3cnc4sc(C)c(C)c4c3=O)c(=O)c2c1C	1.1
137	COc1ccccc1NC(=S)NCCc1ccc(Cl)cc1	i
138	CSCCC(NC(=O)c1ccccc1)C(=O)OCC(=O)Nc1ccc(C)c(Cl)c1 (configuration not stated)	i
139	CN(C)S(=O)(=O)c1ccc(NC(=O)COC(=O)c2ccccn2)cc1	i

These rows are one share of the data (hit frequency here may not be typical).
